Source: PubChem BioAssay (Broad Institute)
BJeLR viab HTS – compounds reducing viability of BJeLR cells; BJeLR fibroblasts viability, CellTiterGlo ATP luminescence, 48 h; HRASV12, hTERT and SV40 LT/ST transformed; viability loss activity score, % (concentration not given with the values); 0.64% of 30,000 active; AID 2275; in the data active means viability loss activity score above about 50%; inconclusive means no clear call, values can overlap the other calls; inactive means below about 35%; about a fifth of its hits are not listed in these tables;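 further: higher score means fewer live cells and less ATP luminescence; stock transfer was 50 or 100 nL into about 30 µL; 0% = vehicle wells and 100% = a reference killing control; one replicate is shown; the record names a cut of 85%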
A1 inhib – A1 inhibition | 0.51% of 21,000 active | MEF A1-2A-BIM cells, caspase-Glo luminescence, 3 h; percent of clofoctol signal, DMSO as zero | caspase activation, % (concentration not given with the values);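 active means most replicate scores above 10, or exactly half above 10 with mean activity above 10; inconclusive means mean activity below 10 while half the replicates exceed 10; inactive means most replicate scores below 10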;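 further: effector caspase 3 and 7 activity cleaving a DEVD luciferin substrate; 50 nL library stock added to about 30 µL; numbers are from one replicate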
Active calls of the source: *; ? = inconclusive; · = no result given.

Sample of the layout (three entries):
Below each SMILES – BJeLR viab HTS	A1 inhib
O=c1c(Cl)c(NCCc2ccccc2)cnn1-c1ccccc1
    -4.8	-0.9
N#Cc1c(C(F)(F)F)cc(-c2ccccc2)nc1SCC(=O)N1CCCCC1
    1.8	-1.1
Cc1sc2nc(C(=O)Oc3ccc(F)cc3)cc(N)c2c1C
    2.1	-3.3

All compounds of this part, repeating the preview:
Below each SMILES – BJeLR viab HTS	A1 inhib
O=c1c(Cl)c(NCCc2ccccc2)cnn1-c1ccccc1
    -4.8	-0.9
N#Cc1c(C(F)(F)F)cc(-c2ccccc2)nc1SCC(=O)N1CCCCC1
    1.8	-1.1
Cc1sc2nc(C(=O)Oc3ccc(F)cc3)cc(N)c2c1C
    2.1	-3.3
C[C@H](CO)N1C[C@H](C)[C@@H](CN(C)Cc2ccc3c(c2)OCO3)Oc2c(NC(=O)c3ccc(-c4nccs4)cc3)cccc2C1=O
    -9.0	·
O=C1CC(C(=O)Nc2ccccc2)N=C(Nc2nc3ccccc3s2)N1 (stereo not drawn)
    -5.3	0.5
Cc1noc(C)c1NC(=O)N(C)C[C@H]1Oc2ccc(NC(=O)Nc3ccc(C(F)(F)F)cc3)cc2C(=O)N([C@H](C)CO)C[C@H]1C
    14	0.1
CCCSc1nc2c(c(=O)n1CC)SC(C)C2 (stereo not drawn)
    0.4	·
NC(=O)C1c2ccccc2Oc2ccccc21
    5.5	·
O=C(c1ccccc1)c1ccc(F)cc1
    1.8	2.1
O=C(Oc1ccc(C=Nc2ccc(F)cc2)cc1)c1cccs1
    0.5	-1.2
COc1ccc(NC(=O)Nc2cccc3c2O[C@H](CN(C)Cc2ccc(-c4ccccc4)cc2)[C@H](C)CN([C@H](C)CO)C3=O)cc1
    0.0	·
S=c1[nH]nc(-c2cccnc2)n1/N=C/C=C/c1ccco1
    -4.4	-0.7
CCCCN(CC)S(=O)(=O)c1ccc(C(=O)Nc2nnc(-c3ccc(Cl)s3)o2)cc1
    29	·
C[C@@H]1CN([C@H](C)CO)C(=O)c2cccc(NS(=O)(=O)c3cn(C)cn3)c2O[C@@H]1CN(C)CC1CCCCC1
    -2.2	·
C[C@@H]1CN([C@@H](C)CO)C(=O)c2cc(NC(=O)Nc3ccc(F)cc3)ccc2O[C@@H]1CN(C)S(=O)(=O)c1ccc(Cl)cc1
    2.5	0.1
O=C(Nc1ccccc1C(F)(F)F)C1Sc2nnc(-c3ccccc3)n2NC1c1ccc(F)cc1 (stereo not drawn)
    1.0	0.2
CCN1C(=O)c2ccccc2S(=O)(=O)c2ccc(C(=O)N3CCCC3)cc21
    -2.4	·
COC(=O)c1c(O)cc(C)cc1Oc1c(O)cc(OC)cc1CO
    4.9	-0.4
C[C@H]1CN([C@@H](C)CO)C(=O)c2cc(NC(=O)CCCCCC(=O)Nc3ccccc3N)ccc2O[C@@H]1CN(C)C(=O)Nc1cccc2ccccc12
    -2.0	·
O=C(CCCCn1cnc2ccccc21)c1ccccc1
    15	-0.5

Exported comma-delimited: entries from further up
Structure,BJeLR viab HTS,A1 inhib
O=C(Oc1ccc(C=Nc2ccc(F)cc2)cc1)c1cccs1,0.5,-1.2
COc1ccc(NC(=O)Nc2cccc3c2O[C@H](CN(C)Cc2ccc(-c4ccccc4)cc2)[C@H](C)CN([C@H](C)CO)C3=O)cc1,0.0,·
S=c1[nH]nc(-c2cccnc2)n1/N=C/C=C/c1ccco1,-4.4,-0.7

Continuation.
Below each SMILES – BJeLR viab HTS	A1 inhib
CC1CCc2c(sc(/N=C/C=C/c3ccccc3)c2C#N)C1 (stereo not drawn)
    -3.8	-0.9
C[C@H](CO)N1C[C@H](C)[C@@H](CN(C)Cc2ccc(C(F)(F)F)cc2)Oc2c(NS(=O)(=O)c3cccs3)cccc2C1=O
    -1.4	·
Cc1noc(C)c1NC(=O)N(C)C[C@@H]1Oc2ccc(NC(=O)CCCCCC(=O)Nc3ccccc3N)cc2C(=O)N([C@H](C)CO)C[C@@H]1C
    -6.5	·
COc1ccc2ccccc2c1-c1c(OC)ccc2ccccc12
    -2.1	0.4
COc1ccc(N(C)S(=O)(=O)c2ccc3c(c2)CCN3C(=O)C2CCC2)c(OC)c1
    -3.8	·
CC(=O)Nc1cccc(-c2cc(=O)c3ccccc3o2)c1O
    0.8	-7.7
C[C@@H]1CN([C@H](C)CO)C(=O)c2cccc(NC(=O)NC3CCCCC3)c2O[C@@H]1CN(C)S(=O)(=O)c1ccccc1
    2.9	·
C[C@@H]1CN([C@@H](C)CO)C(=O)c2cccc(NS(C)(=O)=O)c2O[C@H]1CN(C)C(=O)Nc1cccc2ccccc12
    -1.2	·
CC(=O)Nc1cc(C(=O)NC2CCC(C)CC2)ccc1S(=O)(=O)c1ccc(Cl)cc1 (stereo not drawn)
    1.8	0.0
CC1OC(OC(=O)C2=CC3(O)CC(C)(C)CC34C(C)CCC24)C(O)C(O)C1O (stereo not drawn)
    2.1	0.4
COC(=O)c1ccc(/C=C2/NC(=O)N(Cc3ccc(Br)cc3)C2=O)cc1
    1.4	·
COC(=O)c1cc2sc3ccccc3c2s1
    5.6	·
Cc1cccc(CN2CCC(CNC(=O)c3cc4c(=O)[nH]c5ccc(C)cc5c4s3)CC2)c1
    -0.2	?
O=C(Nc1ccc(Cl)cc1)c1sc2ccccc2c1Cl
    1.7	-0.9
CC1=CS(=O)(=O)CC1SC(=S)NC(C)C (stereo not drawn)
    -3.6	0.3
COc1ccc(NC(=O)N(C)C[C@H]2Oc3ccc(NS(=O)(=O)c4cccs4)cc3C(=O)N([C@@H](C)CO)C[C@H]2C)cc1
    1.3	0.7
COc1ccccc1CNC(=O)Cn1cnc2ccc(S(=O)(=O)N3CCC(C)CC3)cc2c1=O
    6.5	·
C[C@@H]1CN([C@H](C)CO)C(=O)c2cccc(NC(=O)C3CCCCC3)c2O[C@H]1CN(C)S(=O)(=O)c1ccc(F)cc1
    -0.1	·
C[C@H](CO)N1C[C@H](C)[C@@H](CN(C)C(=O)Nc2ccc(F)cc2)Oc2ccc(NC(=O)Nc3ccc4c(c3)OCO4)cc2C1=O
    0.5	0.1
C[C@@H]1CN([C@@H](C)CO)C(=O)c2cccc(NC(=O)Nc3ccc(F)cc3)c2O[C@@H]1CN(C)Cc1ccc(C(F)(F)F)cc1
    -0.7	·
Cc1noc(C)c1NC(=O)N(C)C[C@H]1Oc2ccc(NS(=O)(=O)c3cccs3)cc2C(=O)N([C@@H](C)CO)C[C@H]1C
    2.3	0.2
COc1ccc(S(=O)(=O)Nc2cccc3c2O[C@H](CN(C)C(=O)Nc2ccc(C(F)(F)F)cc2)[C@H](C)CN([C@@H](C)CO)C3=O)cc1
    1.3	·
CC(C)N(Cc1ccccc1)C(=O)Nc1ccc(C(F)(F)F)cc1
    1.3	0.2
Cc1noc(C)c1NC(=O)Nc1cccc2c1O[C@H](CN(C)S(=O)(=O)c1ccccc1)[C@H](C)CN([C@H](C)CO)C2=O
    -4.1	·
Cn1c(=O)c2c(nc(Sc3nnc(N)s3)n2C)n(C)c1=O
    -4.7	-0.2
CC(C)NC(=O)Nc1ccc2c(c1)C(=O)N([C@H](C)CO)C[C@@H](C)[C@@H](CN(C)Cc1ccc(C(=O)O)cc1)O2
    5.3	0.5
COC(=O)c1cc(-c2cccc(OC)c2)on1
    5.1	-2.7
CCCCOc1ccc(OCCCN2CCOCC2)cc1
    0.7	0.8
COc1ccc(S(=O)(=O)N(C)C[C@H]2Oc3ccc(NC(=O)Cc4ccccc4)cc3C(=O)N([C@@H](C)CO)C[C@H]2C)cc1
    -0.6	0.6
O=C(N[C@@H]1C[C@H]2CC[C@@H]1C2)c1ccc(CSc2ccccc2)cc1
    2.3	-0.2
Ic1ccc(Nc2nc3nonc3nc2N2CCCCC2)cc1
    7.6	·
Cc1ccc(S(=O)(=O)Nc2cccc3c2O[C@H](CN(C)S(=O)(=O)c2cn(C)cn2)[C@H](C)CN([C@H](C)CO)C3=O)cc1
    -2.2	·
O=c1c2ccccc2nc(SCc2c(F)cccc2F)n1Cc1ccccc1
    -4.9	0.9
COc1ccc(OC)c(S(=O)(=O)c2ccc(Br)cc2)c1
    -5.3	0.0
COc1ccc(NC(=O)N(C)C[C@H]2Oc3c(NC(=O)Nc4cccc5ccccc45)cccc3C(=O)N([C@H](C)CO)C[C@@H]2C)cc1
    -2.4	·
C[C@H](CO)N1C[C@H](C)[C@H](CN(C)S(=O)(=O)c2ccc(F)cc2)Oc2ccc(NC(=O)C3CCCCC3)cc2C1=O
    1.6	0.0
CCC(=O)n1nc(-c2ccccc2)nc1NCc1ccco1
    -8.1	·
CCOc1ccc(-n2c(C)nc3cc(C(=O)NCc4ccccc4Cl)ccc32)cc1
    -7.3	0.2
COc1cc(N2CN=c3s/c(=C\C=C\c4ccccc4)c(=O)n3C2)cc(OC)c1OC
    -4.9	·
N#Cc1c(N)nc(SCC(=O)c2ccc3ccccc3c2)c(C#N)c1-c1cccc(F)c1
    -0.4	-0.4
CCn1c(SCCOc2ccc(OC)cc2)nc2ccccc21
    -1.6	0.5
Nc1cc(N)cc(C(=O)OCN2C(=O)c3ccccc3C2=O)c1
    1.1	0.6
C=C1C(=O)O[C@@H]2CC=C(CCC(C)O)C(C)C[C@@H]12 (stereo partly drawn)
    -8.7	-1.2
CCC(C)[C@@H](C(=O)NCc1ccccc1C)N1Cc2ccccc2C1=O (stereo partly drawn)
    -0.3	·
Cc1cc(NCn2ncc3ccccc3c2=O)ccc1Br
    -13	4.8
Cc1c(-c2nnnn2-c2ccccc2)cnc2ccccc12
    3.2	-0.8
C[C@@H]1CN([C@@H](C)CO)C(=O)c2cccc(NC(=O)C3CCOCC3)c2O[C@@H]1CN(C)CC1CC1
    3.1	·
Cc1noc(C)c1S(=O)(=O)Nc1ccc2c(c1)C(=O)N([C@@H](C)CO)C[C@@H](C)[C@H](CN(C)C(=O)Nc1ccc(F)cc1)O2
    0.7	-0.6
CN(C)c1cc(N=C2CCCN2c2ccccc2)c2ccccc2n1
    2.1	0.2
O=C(NCC1CCCO1)C1c2ccccc2Oc2ccccc21 (stereo not drawn)
    -5.4	-1.3
Cc1snnc1C(=O)Oc1ccccc1-c1nnco1
    5.0	-1.2
Cc1nn(CC(=O)NCC2CCCO2)c(=O)c2cc3occc3n12 (stereo not drawn)
    8.5	0.8
C[C@@H]1CN([C@H](C)CO)C(=O)c2cc(NS(=O)(=O)c3cccs3)ccc2O[C@H]1CN(C)S(=O)(=O)c1cccs1
    3.7	-0.4
C[C@@H]1CN([C@@H](C)CO)C(=O)c2cc(NC(=O)c3ccncc3)ccc2O[C@@H]1CN(C)S(=O)(=O)c1cccs1
    1.2	0.0
C[C@H]1CN([C@@H](C)CO)C(=O)c2cccc(NC(=O)c3ccc(-c4nccs4)cc3)c2O[C@@H]1CN(C)C(=O)Nc1ccc2c(c1)OCO2
    -3.0	·
CC(C)CNC(=O)N1c2ccccc2Sc2ccccc21
    9.2	0.2
CCOC(=O)c1cnc(C(F)(F)F)nc1Sc1n[nH]c(-c2cccs2)n1
    -8.7	0.2
CNC[C@@H]1Oc2ccc(NC(=O)Nc3ccc4c(c3)OCO4)cc2C(=O)N([C@@H](C)CO)C[C@H]1C
    4.2	-0.3
CC(NCc1cccnc1)C12CC3CC(CC(C3)C1)C2 (stereo not drawn)
    -2.2	·
CC(NC(=O)Cn1nc(-c2ccccc2)ccc1=O)c1ccccc1 (stereo not drawn)
    -1.7	0.3

Next part:
Below each SMILES – BJeLR viab HTS	A1 inhib
C[C@@H]1CN([C@@H](C)CO)C(=O)c2cccc(NC(=O)Nc3ccccc3)c2O[C@@H]1CN(C)C(=O)NC1CCCCC1
    -4.6	·
Cc1ccc2nc3c(c(C(=O)O)c2c1)CC(C(C)(C)C)CC3 (stereo not drawn)
    -1.1	-0.1
C[C@H]1CN([C@@H](C)CO)C(=O)c2cc(NC(=O)NC3CCCCC3)ccc2O[C@H]1CN(C)S(=O)(=O)c1cccs1
    7.5	-0.2
Cc1ccc(S(=O)(=O)N(C)c2ccc(C(=O)N3CCCCC3)cc2)cc1
    5.3	-1.1
COc1cc(C2Sc3ccccc3N=C3c4ccccc4C(=O)C32)ccc1OC(C)=O (stereo not drawn)
    -7.5	·
CCc1ccc(NC(=O)Cc2coc3ccc(C(C)C)cc23)cc1
    24	-0.1
C[C@@H]1CN([C@@H](C)CO)C(=O)c2cccc(NS(=O)(=O)c3cn(C)cn3)c2O[C@@H]1CN(C)C(=O)Nc1cccc2ccccc12
    0.1	·
c1ccc(-c2ccc(-c3cn4ccccc4n3)cc2)cc1
    29	-5.7
Cc1ccc(S(=O)(=O)Nc2ccc3c(c2)C(=O)N([C@@H](C)CO)C[C@H](C)[C@H](CN(C)Cc2ccc(Cl)c(Cl)c2)O3)cc1
    1.3	-0.3
CCCC12CN(C(=O)CC)CC(CCC)(CN(C(=O)CC)C1)C2=O
    -5.3	·
C[C@@H]1CN([C@@H](C)CO)C(=O)c2cccc(NC(=O)c3cnccn3)c2O[C@@H]1CN(C)S(=O)(=O)c1cccs1
    -5.8	·
Cc1noc(C)c1S(=O)(=O)N(C)C[C@@H]1Oc2c(NS(=O)(=O)c3ccccc3)cccc2C(=O)N([C@H](C)CO)C[C@@H]1C
    -4.1	·
COc1ccc(N(C(=O)c2ccccc2)S(=O)(=O)c2ccc(Cl)cc2)cc1
    1.7	-0.5

Not all compounds are listed, so the mix of outcomes need not match the whole.
